EPAC1 ag val: validation of human EPAC1 agonists; actives 1% (n = 16,000); O95398; AID 1645883; Potency, µM, for inactives: max response, positive = active, hits mostly activators; EPAC1 Rap1b BODIPY-GDP exchange, fluorescence; active = well fitted activation curve with a large enough effect; inconclusive = small, poorly fitted or top-dose-only effect; inactive = no such curve, though single readings can be large or run the other way;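 also: nearly all actives have a fitted effect of over 70% in size; series mostly up to about 76 or 150 µM; scaled to a cAMP control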
Target sequence (O95398 whole entry, looked up): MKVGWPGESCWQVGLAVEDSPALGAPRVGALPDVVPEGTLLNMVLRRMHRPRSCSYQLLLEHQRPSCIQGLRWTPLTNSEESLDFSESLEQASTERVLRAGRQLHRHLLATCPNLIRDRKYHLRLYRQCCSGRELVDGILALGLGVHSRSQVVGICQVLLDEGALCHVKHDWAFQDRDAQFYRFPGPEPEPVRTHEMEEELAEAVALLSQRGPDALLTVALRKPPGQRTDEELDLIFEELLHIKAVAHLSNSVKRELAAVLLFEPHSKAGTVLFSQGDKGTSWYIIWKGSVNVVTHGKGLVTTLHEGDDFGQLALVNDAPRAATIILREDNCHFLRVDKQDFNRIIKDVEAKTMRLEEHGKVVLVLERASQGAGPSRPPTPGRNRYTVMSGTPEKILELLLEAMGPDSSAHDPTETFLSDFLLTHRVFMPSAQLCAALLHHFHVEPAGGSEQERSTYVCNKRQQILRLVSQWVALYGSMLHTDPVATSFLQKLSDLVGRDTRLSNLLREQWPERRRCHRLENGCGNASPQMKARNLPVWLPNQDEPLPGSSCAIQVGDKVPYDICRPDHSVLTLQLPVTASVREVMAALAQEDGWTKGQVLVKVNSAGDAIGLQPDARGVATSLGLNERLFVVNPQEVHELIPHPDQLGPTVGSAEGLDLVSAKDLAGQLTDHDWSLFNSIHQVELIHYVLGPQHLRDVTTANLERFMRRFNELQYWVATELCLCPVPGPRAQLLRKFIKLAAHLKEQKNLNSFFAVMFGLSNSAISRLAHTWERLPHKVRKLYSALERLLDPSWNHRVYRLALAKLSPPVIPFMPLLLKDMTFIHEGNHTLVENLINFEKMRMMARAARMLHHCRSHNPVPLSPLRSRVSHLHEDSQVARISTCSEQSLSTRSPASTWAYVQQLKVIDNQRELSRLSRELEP
* = called active by the depositor; ? = inconclusive; & = joins results of further samples; [ ] = dose if it differs, or a comment. % is scaled to controls: 0 for no effect and ±100 for the full control effect; potency is read from the fitted curve at half-maximal effect.

Start of the data: the first five records (preview)
SMILES	EPAC1 ag val
CN(C)Cc1ccccc1-c1ccc2ncnc(NCc3cccs3)c2c1	8%
Cc1noc(C)c1C(=O)N1CCC[C@@]2(CCN(c3ncccn3)C2)C1	-49%[inhibitor]
O=C([C@@H]1CC=C[C@@H]2CCN(C3CCCCC3)C(=O)[C@@H]21)N1CCN(c2ccccc2)CC1	-34%
COc1ccc(-n2c(CNC(=O)c3c(-c4ccccc4)noc3C)nnc2SC)cc1	-13%
Cc1ccccc1C1(CC(=O)N2CCC[C@H]2C(N)=O)CC(=O)N(C2CCCC2)C1=O (stereo partly drawn)	-3%

All compounds of this part (from the top)
SMILES	EPAC1 ag val
CN(C)Cc1ccccc1-c1ccc2ncnc(NCc3cccs3)c2c1	8%
Cc1noc(C)c1C(=O)N1CCC[C@@]2(CCN(c3ncccn3)C2)C1	-49%[inhibitor]
O=C([C@@H]1CC=C[C@@H]2CCN(C3CCCCC3)C(=O)[C@@H]21)N1CCN(c2ccccc2)CC1	-34%
COc1ccc(-n2c(CNC(=O)c3c(-c4ccccc4)noc3C)nnc2SC)cc1	-13%
Cc1ccccc1C1(CC(=O)N2CCC[C@H]2C(N)=O)CC(=O)N(C2CCCC2)C1=O (stereo partly drawn)	-3%
NC1C(O)OC(CO)[C@@H](O)[C@@H]1O[C@H]1O[C@@H](C(=O)O)C(O)C(O)C1O (stereo partly drawn)	10%
Cc1ncc2c(c1CNC(=O)c1ccc3c(c1)OCO3)CCN(C(=O)c1noc3c1CCCC3)C2	10%
NS(=O)(=O)c1ccc(NC(=O)CCC(=O)O)cc1	7%
COCCNc1nc(-c2cccc(OC)c2)nc2ccccc12	-133%[inhibitor]
Nc1nc2[nH]c(=O)cnc2c(=O)[nH]1	2%
COc1cccc(Cn2c(=O)c(-c3cc(F)cc(F)c3)nc3cnc(N4CCOCC4)nc32)c1	-31%[inhibitor]
N#Cc1ccc[n+](CC(=O)c2ccc(F)cc2)c1	3%
Cc1cc(O)c2c(c1O)C(=O)C(O)=C(O)C2=O	-39%[inhibitor]
O=C(O)Cc1cccc(-c2cc(CCCCCCc3ccc(O[C@H]4O[C@H](CO)[C@@H](O)[C@H](O)[C@@H]4O)c(-c4cccc(CC(=O)O)c4)c3)ccc2O[C@H]2O[C@H](CO)[C@@H](O)[C@H](O)[C@@H]2O)c1	-5%
CN(C)C(=O)CCC(=O)NCC1Cc2cccc(-c3ccccc3C(F)(F)F)c2O1 (stereo not drawn)	-33%
COCc1c(C(=O)N2CCN(C(C)C)CC2)cnn1-c1nccc(-c2cc(C)sc2C)n1	-5%
Cc1c(O)c(=O)ccn1C	0%
COc1cc2c(cc1OC)C(=O)OC2	-3%
COc1ccc(CNC(=O)c2cnn(-c3ncc4c(n3)-c3ccccc3CC4)c2C)cc1OC	-1%
Cn1c(=O)c(-c2cc(F)cc(F)c2)nc2cncnc21	-40%[inhibitor]
Cc1ccc2cc(CNCc3cccc4ccccc34)c(N3CCC(O)CC3)nc2c1	11%
FC(F)(F)c1ccccc1-c1ccc2ncnc(NCCN3CCOCC3)c2c1	-32%[inhibitor]
Cn1cccc1C(=O)N1CCC2(CCCN(c3ccccc3)C2)CC1	-40%[inhibitor]
O=C(O)/C=C/C(=O)Nc1ccc(S(=O)(=O)Nc2nccs2)cc1	-13%
CN(C(=O)CN(CCO)CC(=O)N(C)C(C)(C)Cc1ccccc1)C(C)(C)Cc1ccccc1	-28%&3%
Cc1noc(C)c1-c1cncnc1N1CCN(C)CC1	-8%
FC(F)(F)c1ccccc1-c1cc(N2CCNCC2)ncn1	27%
Nc1ncnc2c1ncn2C1OC(COP(=O)(O)O)C(O)C1O (stereo not drawn)	-9%
COc1ccc(-n2c(=O)c(-c3cccs3)nc3cnc(N4CCN(C)CC4)nc32)cc1	16%
COc1ccc(C(=O)N2CCC3(CC2)CN(c2ccccn2)C3)cc1	?
COc1ccc2[nH]cc(CCNc3ncnc4ccc(-c5ccc6c(c5)OCO6)cc34)c2c1	?
CCN(Cc1ccncc1)Cc1ccc2c(c1)CN(C(=O)c1ccc(OC)cc1)CCO2	4%
COc1cc2nc(N(C)CCCNC(=O)C3CCCO3)nc(N)c2cc1OC (stereo not drawn)	6%&1%&4%
CC(C)C[C@@H](CO)N1CCN(Cc2ccccc2)CCC1=O	-2%&-22%
COC(=O)c1cc(CNC(=O)c2ccccc2)cc(NC(=O)c2ccccc2OC)c1	-5%
O=C(Nc1cccc(C(=O)Nc2ccc(S(=O)(=O)O)c3cc(S(=O)(=O)O)cc(S(=O)(=O)O)c23)c1)Nc1cccc(C(=O)Nc2ccc(S(=O)(=O)O)c3cc(S(=O)(=O)O)cc(S(=O)(=O)O)c23)c1	?
O=C(O)CCC(=O)N1CCCC1C(=O)O (stereo not drawn)	5%
N#CCCN1CCC(NC(=O)OCc2ccccc2)CCC1=O (stereo not drawn)	?
CSc1ccccc1C(=O)NCC1Cc2cccc(-c3ncccc3C)c2O1 (stereo not drawn)	8%
CC(C)(C)c1ccc2c(S(=O)(=O)O)c(C(C)(C)C)ccc2c1	-120%&-24%[inhibitor]

A different layout for two compounds above:
> N#CCCN1CCC(NC(=O)OCc2ccccc2)CCC1=O (stereo not drawn)
  EPAC1 ag val: ?

> O=C(Nc1cccc(C(=O)Nc2ccc(S(=O)(=O)O)c3cc(S(=O)(=O)O)cc(S(=O)(=O)O)c23)c1)Nc1cccc(C(=O)Nc2ccc(S(=O)(=O)O)c3cc(S(=O)(=O)O)cc(S(=O)(=O)O)c23)c1
  EPAC1 ag val: ?

Carrying on:
SMILES	EPAC1 ag val
COCCN1CCN(C(=O)c2cnn(-c3nccc(-c4ccccc4OC)n3)c2-c2ccco2)CC1	-2%
COC(=O)C[C@](O)(CCCC(C)(C)O)C(=O)O[C@@H]1C(OC)=C[C@]23CCCN2CCc2cc4c(cc2[C@H]13)OCO4	-21%
CCCCCCCCCC[Si](C)(C)CCC(=O)NC(Cc1ccc(C)cc1)c1ccccc1 (stereo not drawn)	-7%
CC1CC(=O)NN=C1c1ccc(NCC(C)(C)NCC(O)COc2cc(Cl)ccc2C#N)cc1 (stereo not drawn)	?
CCCCC(CC)CN1CN(CC(CC)CCCC)CC(C)(N)C1 (stereo not drawn)	-83%&-21%[inhibitor]
CS(=O)(=O)c1ccc(-c2ccc3c(c2)CC(CNC(=O)C2(N4CCOCC4)CCCCC2)O3)cc1 (stereo not drawn)	-7%
Oc1ccc(Cl)cc1CN1CCOc2c(O)cc(-c3nc4ccccc4s3)cc2C1	26%
OCCN1CCN(CCCN2c3ccccc3Sc3ccc(C(F)(F)F)cc32)CC1	17%&-5%&-58%
CCCN1CCC(=O)N([C@H](CN=[N+]=[N-])Cc2ccccc2)CC1	20%
COc1ccc(-c2nc3cc(F)ccc3cc2CN(C(=O)c2cccs2)C2CC2)cc1	-11%
CCCCOc1cc(C[C@@H]2CNC(=O)N2)ccc1OC	6%
CCCCCCCCCCCCCCCC(=O)NCC(COP(=O)([O-])OCC[N+](C)(C)C)OCC (stereo not drawn)	1%
O=S(=O)(O)c1cc(I)c(O)c2ncccc12	13%
Cc1cccc2cc(CN(CC3CCCO3)C(=O)c3cccc(F)c3)c(N(C)C)nc12 (stereo not drawn)	-10%
COc1ccccc1CNc1ncnc2ccc(-c3ccccc3CN(C)C)cc12	?
CN(C)/N=N/c1nc[nH]c1C(N)=O	-6%&-10%
CN1C(=O)N(C)C2=NNC=NC2(O)C1=O (stereo not drawn)	?
O=c1c(-c2cc(F)cc(F)c2)nc2cncnc2n1Cc1ccccc1	-19%
O=C(Nc1cccc(F)c1)N1CCCC2(CCN(C(=O)c3cccc(F)c3)CC2)C1	-34%[inhibitor]
COCC(=O)N1CCC2(CC1)CN(c1ccccc1)C2	-26%
c1ccc2occc2c1	-18%
CCN(Cc1ccncc1)Cc1ccc2c(c1)CN(C(=O)c1cccc3c(C)c(C)[nH]c13)CCO2	-5%
O=c1[nH]c(=O)n(C2CC(O)C(CO)O2)cc1F (stereo not drawn)	13%
CN(CCc1ccc(Cl)c(Cl)c1)CCN1CCCCCC1	-12%
C[C@@]12C(=O)OC(=O)[C@@]1(C)[C@@H]1CC[C@@H]2O1	-12%
COc1ccc2[nH]cc(CCNc3ccnc(-c4ccc(C(=O)N(C)C)cc4)n3)c2c1	-9%
Clc1cccc2c1CN(C1=NCCN1)C2	-19%
NS(=O)(=O)c1ccc(C(=O)O)cc1	0%
O=Cc1ccccc1-c1cn(CN2C(=O)c3ccccc3C2=O)nn1	24%
O=S(c1cc(Cl)cc(Cl)c1O)c1cc(Cl)cc(Cl)c1O	-3%
COc1ccccc1N1CCN(CCN(C(=O)C2CCCCC2)c2ccccn2)CC1	1%
CN(C)Cc1ccccc1-c1cc(-n2ccnc2)ncn1	9%
Cc1noc(C)c1-c1nccc(N2CCNCC2)n1	1%
O=c1c(-c2cccs2)nc2cnc(N3CCOCC3)nc2n1Cc1ccc(F)cc1	1%
CCCCNC(=O)[C@@H]1CC=C[C@@H]2CCN(C3CCCCC3)C(=O)[C@@H]21	-36%
C[C@]12C=CC(=O)C=C1CC[C@@H]1[C@@H]2[C@@H](O)C[C@@]2(C)[C@H]1CC[C@]2(O)C(=O)COC(=O)CCC(=O)O	?
CCCn1c(=O)c2[nH]c(-c3ccc(OCC(=O)NCCN)cc3)nc2n(CCC)c1=O	2%
Cc1cc(CNC(=O)CCN2Cc3cc(Cl)ccc3OC(C)C2)nn1C (stereo not drawn)	-6%
C=C(c1ccc2ccccc2n1)c1cccs1	-2%
Cc1cnc(C(=O)N2CCOc3ccc(CN4CCCC(C(=O)c5cccnc5)C4)cc3C2)[nH]1 (stereo not drawn)	-9%
N#Cc1cccc(-c2nc(NCCN3CCOCC3)c3ccccc3n2)c1	6%
COc1ccc2[nH]cc(CCNc3cc(-c4ccccc4CN(C)C)ncn3)c2c1	-42%[inhibitor]
CN1CCN(c2ncc3nc(-c4cc(F)cc(F)c4)c(=O)n(CCC#N)c3n2)CC1	-7%
O=S(=O)(c1ccccc1)N1CCC2(CCN(c3ccc(-c4ccccc4)cc3)CC2)CC1	-49%[inhibitor]
CCN1CCc2nc(N)oc2CC1	-5%&-14%
CN(C)c1ccnc(-c2cccc(NS(C)(=O)=O)c2)n1	25%
CCNc1ncc2nc(C)c(=O)n(Cc3cccc(OC)c3)c2n1	-80%[inhibitor]
Cc1cc(/C=C/c2ccc3cc(N(C)C)ccc3[n+]2C)c(C)n1-c1ccccc1	-6%&-26%
CC(=O)Nc1ccccc1-c1nc(CNC(=O)c2cccc(F)c2)c(C)o1	-4%
COc1cc(C)c(C(=O)Oc2cc(C)c(C(=O)O)c(O)c2C)c(OC)c1C	-128%[inhibitor]
The results go on:
SMILES	EPAC1 ag val
COCCNc1ncnc2ccc(-c3cccnc3)cc12	-29%
CC(C)NC[C@@H](O)COc1cccc2[nH]ccc12	10%
CC1(C)C(=O)NC2=C1C(=O)C(=O)c1ccccc12	-9%
CC(=O)OCC[N+](C)(C)C	-6%&19%&-29%
CC1(C)S[C@H]2[C@@H](NC(=O)C(N)c3ccccc3)C(=O)N2[C@H]1C(=O)O (stereo partly drawn)	-12%
CC(C)N1CCN(C(=O)c2cnn(-c3nccc(-c4ccc5c(c4)OCO5)n3)c2-c2ccco2)CC1	-1%
CCSc1nnc(C(C)NC(=O)c2ccc(OC)cc2)n1C (stereo not drawn)	7%
OC(c1cc(C(F)(F)F)nc2c(C(F)(F)F)cccc12)C1CCCCN1 (stereo not drawn)	2%
COc1ccc(-c2nc3cnc(N4CCOCC4)nc3n(CCC#N)c2=O)cc1	13%
COc1ncc2nc(-c3cc(F)cc(F)c3)c(=O)n(-c3ccccc3)c2n1	-19%
COc1ccc(SCCN2CC[C@@H](NC(=O)OCc3ccccc3)CCC2=O)cc1	?
COc1ccc2c(c1)OC(C)CN(CCNC(=O)c1cccc(N3CCNC3=O)c1)C2 (stereo not drawn)	-5%
COc1ccc(C(=O)N2CCC3(CC2)CCN(c2ccccn2)CC3)cc1	-53%[inhibitor]
CN(C)c1ccc(-c2ccc3ncnc(N4CCNCC4)c3c2)cc1	13%
CN(C)CCCn1cc(C2=C(c3c[nH]c4ccccc34)C(=O)NC2=O)c2ccccc21	-4%
O=C(c1cnn2cccnc12)N1CCOc2ccc(C(O)C(c3ccccc3)c3ccccc3)cc2C1 (stereo not drawn)	-4%
CC(=O)N1CCC2(CC1)CCN(c1ccncc1)CC2	-44%[inhibitor]
Cc1cccc2cc(CN(C(=O)c3ccc(-c4ccc(F)cc4)cc3)C3CC3)c(N3CCC(O)CC3)nc12	-10%
COc1ccc(-c2coc3ccc(OC4OC(COC(C)=O)C(OC(C)=O)C(OC(C)=O)C4OC(C)=O)c(OC(C)=O)c3c2=O)cc1 (stereo not drawn)	-13%
O=C(c1cnccn1)N1CCC2(CC1)CCN(c1ccccn1)CC2	-29%

Rewritten with the structure last: six of the compounds above.
EPAC1 ag val	smiles
-128%[inhibitor]	COc1cc(C)c(C(=O)Oc2cc(C)c(C(=O)O)c(O)c2C)c(OC)c1C
-29%	COCCNc1ncnc2ccc(-c3cccnc3)cc12
10%	CC(C)NC[C@@H](O)COc1cccc2[nH]ccc12
-9%	CC1(C)C(=O)NC2=C1C(=O)C(=O)c1ccccc12
-6%&19%&-29%	CC(=O)OCC[N+](C)(C)C
-12%	CC1(C)S[C@H]2[C@@H](NC(=O)C(N)c3ccccc3)C(=O)N2[C@H]1C(=O)O (stereo partly drawn)

New compounds follow:
SMILES	EPAC1 ag val
OC1CCN(Cc2ccc3c(c2)CN(C/C=C/c2ccco2)CCO3)CC1	-5%
Cc1ccc(C(=O)N(Cc2cc3cc4c(cc3nc2N2CCOCC2)CCC4)CC2CCCO2)cc1 (stereo not drawn)	18%
O=C(Nc1ccccc1)N[C@H]1C[C@H](C(=O)O)Nc2cc(Cl)cc(Cl)c21	1%
O=C1C=CC(=O)c2c(O)c(Cl)c(Cl)c(O)c21	?

Assay outcomes (PubChem BioAssay)

This is a subset; count on the stated rates, not on these rows.
